Screens deposited in PubChem by SRMLSC.
H5N1 CPE = antiviral screen in MDCK cells, H5N1 avian flu; cytopathic effect, luminescence, 72 h; hits give high values; no value below 0 was filed and about half of the inactive calls have no number; reference of the scale not given here; inhibition, % at 50 µM; 0.07% of 96,000 active; AID 740; in the data active = inhibition above about 25%
* hit, by the source's call; i = inactive. This is a subset. The share of hits here may be higher or lower than overall.

SMILES	H5N1 CPE
CC(C(=O)N1CCOCC1)(c1ccccc1)c1ccccc1	1.7
CCCCOC(=O)Nc1nnc(-c2ccccc2OC)s1	i
c1ccc(Cc2nnc3sc(-c4ccco4)nn23)cc1	i
O=C(N/N=C/c1ccc(OC(=O)c2ccccc2)cc1)c1ccc(CN2CCOCC2)cc1	2.6
O=C(CN1CCC(C(O)(c2ccccc2)c2ccccc2)CC1)Nc1ccccc1	i
CCn1c2ccccc2c2cc(/C=N/n3c(C)nnc3C)ccc21	i
CCOC(=O)N1CCN(CC(=O)Nc2cc(OCC)ccc2OCC)CC1	i
Cc1ccc(-n2c3c(c(=O)[nH]c2=O)C(C(F)(F)F)(C(F)(F)F)NC(=O)N3)cc1	0.0
O=[N+]([O-])c1ccccc1N/N=C\c1ccccc1Cl	i
O=C(NCc1ccncc1)C(F)(F)C(F)(F)C(=O)NCc1ccncc1	i
COc1ccccc1N1CCN(CCCNC(=O)Nc2ccccc2C)CC1	i
COCCSc1ccccc1C(=O)Nc1cccnc1	1.0
CCc1nnc(NC(=O)C2CCCN(c3nc4ccccc4s3)C2)s1 (stereo unspecified)	1.0
O=C(c1cccc(F)c1)N1CCCC(C(=O)N2CCCC2)C1 (stereo unspecified)	0.6
COc1ccc(C(=O)Nn2c(SCC(=O)NCc3ccco3)nc3ccccc3c2=O)cc1	1.5

3 compounds from above, arranged by heavy-atom count, lowest first:
SMILES	H5N1 CPE
CC(C(=O)N1CCOCC1)(c1ccccc1)c1ccccc1	1.7
CCc1nnc(NC(=O)C2CCCN(c3nc4ccccc4s3)C2)s1 (stereo unspecified)	1.0
COc1ccc(C(=O)Nn2c(SCC(=O)NCc3ccco3)nc3ccccc3c2=O)cc1	1.5

Additional compounds follow.
SMILES	H5N1 CPE
COc1ccc(OC)c2c(N3CCN(C)CC3)cc(C(F)(F)F)nc12	0.6
C(=N\N(c1ccccc1)c1ccccc1)/c1ccc2c(c1)OCO2	i
N#CCSc1nc(-c2ccccc2)cs1	i
Cc1nn(CC(=O)NCc2ccccc2Cl)c(C)c1[N+](=O)[O-]	0.1
CCN(Cc1cc2cc(OC)ccc2[nH]c1=O)C(=O)c1ccncc1	i
Cc1noc(C)c1C(=O)NCCCN1CCCC1=O	0.5
CC(c1ccc(F)cc1)n1cc(C(=O)NCc2ccc3c(c2)OCO3)nn1 (stereo unspecified)	0.7
CCc1ccc(N=C2N=C(N)c3ccccc32)cc1	6.6
C=CCC(C(=O)OC)(C(=O)OC)c1ccc([N+](=O)[O-])cn1	0.2
CCCn1c(/N=C/c2c[nH]c3ccccc23)nc2ccccc21	i
CCSc1nc(N)c2c3c(sc2n1)CCC3	0.1
Cc1cccc(-c2cc3c(nn2)-c2ccccc2C3=O)c1	i
O=C(/C=C/c1ccc(Cl)cc1)c1cccnc1	i
COc1ccc(S(=O)(=O)N2CCN(CCC(=O)Nc3ccccc3F)CC2)cc1	1.3
COc1ccc(-c2nn(-c3ccccc3)cc2C(=O)O)cc1	0.3
O=C(c1ccc2c(c1)OCO2)N1CCN(C(=O)c2ccco2)CC1	i
O=C(Nc1cccc(Cl)c1)N(Cc1nc2ccccc2c(=O)[nH]1)C1CCCC1	i
O=C(NCS(=O)(=O)c1ccccc1)c1ccccc1	1.2
CC(CCc1ccccc1)NC(=O)c1nnc(Cc2ccc(Cl)cc2)o1 (stereo unspecified)	i
O=C(O)c1cccnc1SCC(=O)N1CCCCCC1	i
CC(=O)C1C(=O)C=C(c2ccco2)CC1c1ccccc1 (stereo unspecified)	1.1
COc1ccc(C(=O)O/N=C/c2ccc(S(=O)c3ccc(Cl)cc3)nc2)cc1 (stereo unspecified)	1.0
CCOC(=O)c1c(N)n(CC(C)NC(=O)C2CC2)c2nc3ccccc3nc12 (stereo unspecified)	i
O=C(c1cccc(F)c1)N1CCc2ccccc2C1	0.6
CCOc1ccc(CNC(=O)c2cc3oc4ccccc4c3n2C)cc1	0.9
CCOC(=O)c1sc(N)nc1C(C)(C)C	i
O=c1[nH]c2c(s1)C(c1ccccc1)C1C3CCC(C3)C1S2 (stereo unspecified)	0.1
CCN(CCCNC(=O)C1CCC(=O)N1Cc1ccc(C)cc1)c1cccc(C)c1 (stereo unspecified)	i
Cc1nc(NCCc2ccccc2)c2oc3ccccc3c2n1	0.9
CC(C)n1cc(C(=O)c2cc(Br)ccc2O)cc(C#N)c1=O	i
CN(C)c1nc(OCCOC(=O)c2ccccc2)nc(N(C)C)n1	0.7
COc1ccc(S(=O)(=O)NCc2ccc(C(=O)N3CCC4(CC3)OCCO4)cc2)cc1	0.1
CC(Nc1ncnc2nc[nH]c12)c1ccccc1 (stereo unspecified)	1.0
O=C(CSC1=NS(=O)(=O)c2ccccc21)Nc1ccccc1	0.9
Cc1ccc(C2c3c(-c4ccccc4O)n[nH]c3C(=O)N2Cc2ccncc2)cc1 (stereo unspecified)	0.6
CCn1c(SCC(=O)NCc2ccco2)nc2cccnc21	2.4
Cc1onc(-c2ccccc2Cl)c1C(=O)N1CCCCC1C(=O)O (stereo unspecified)	i
Cc1ccc2c(C(=O)CN3CCSCC3)c(C)[nH]c2c1	1.2
CCN1CCN(C(=O)c2cc3sccc3n2CC(=O)c2ccccc2)CC1	0.8
Cc1ccc(-c2ccc(=O)n(CC(=O)NCCCN3CCCCC3)n2)cc1	1.1
COC(=O)c1ccccc1NC(=O)CN(C)S(=O)(=O)c1ccc(OC)cc1	0.9
CCCC(=O)Nc1cccc2c1CCCC2	i
CCN(CC)c1ccc(N=Cc2c(O)n(-c3ccc(OC)cc3)c(=O)[nH]c2=O)cc1	i
CCCCN(C(=O)NC(=O)Nc1cccc(C)c1C)S(C)(=O)=O	i
CCOC(=O)N1CCC(N2C(=O)c3ccccc3C2Nc2ccc3c(c2)OCCO3)CC1 (stereo unspecified)	i
O=C(NN1c2ccccc2CCc2ccccc21)c1ccccc1Br	i
COc1ccc(Cc2nc3ccc(S(=O)(=O)N4CCOCC4)cc3[nH]2)cc1OC	i
O=C(CSc1nccc(-c2ccc(Br)cc2)n1)NCCc1ccccc1	1.5
N=c1n(CCO)c2ccccc2n1Cc1ccccc1	i
CCOC(=O)Nc1ccc(S(=O)(=O)Nc2cc(C)nc(C)n2)cc1	0.3
O=C(COC(=O)c1ccco1)NCc1ccco1	1.5
CCC(C)N=Cc1c(NCc2ccco2)nc2c(C)cccn2c1=O (stereo unspecified)	15.8
O=C1CCCN1c1ccc(S(=O)(=O)Nc2ccc3c(c2)OCCO3)cc1	i
CCOC(=O)c1cnn(-c2cc(C(C)(C)C)nc3c(-c4ccccc4)c(C)nn23)c1N	0.6
CCOC(=O)c1[nH]c(C)c(/C(O)=C2\C(=O)C(=O)N(CCCN(C)C)C2c2ccncc2)c1C (stereo unspecified)	0.5
COc1cccc(-c2cc(C(=O)NCCCn3ccnc3)no2)c1	0.6
CCC1Oc2ccccc2N(CC(=O)Nc2ccccc2OC)C1=O (stereo unspecified)	i
Cc1cc(NC(=O)C2CCN(S(=O)(=O)c3cccs3)CC2)no1	i
COc1ccc(F)cc1S(=O)(=O)NC1CC(C)(C)NC(C)(C)C1	i
CC(C)(C)OC(=O)N1CCC(C(=O)N[C@@H](Cc2ccccc2)C(=O)O)CC1	i

Rewritten field by field: part of the list above.
compound: COc1cccc(-c2cc(C(=O)NCCCn3ccnc3)no2)c1
  H5N1 CPE = 0.6

compound: Cc1cc(NC(=O)C2CCN(S(=O)(=O)c3cccs3)CC2)no1
  H5N1 CPE = i

compound: O=C1CCCN1c1ccc(S(=O)(=O)Nc2ccc3c(c2)OCCO3)cc1
  H5N1 CPE = i

compound: CCC1Oc2ccccc2N(CC(=O)Nc2ccccc2OC)C1=O (stereo unspecified)
  H5N1 CPE = i

Further compounds follow.
SMILES	H5N1 CPE
CC(C)NS(=O)(=O)c1ccc(OCC(=O)N2CCN(Cc3ccc4c(c3)OCO4)CC2)c(Cl)c1	2.8
COc1ccc(OC)c(C2CC(=O)Nc3cc(OC)c(OC)c(OC)c32)c1 (stereo unspecified)	i
COC(=O)CNc1c(-c2ccccn2)nc2ccc(Br)cn12	0.3
Cc1cc(C(=O)CN2C(=O)C3CC=CCC3C2=O)c(C)n1-c1ccccc1 (stereo unspecified)	i
CC(Sc1nnc(COc2ccc3ccccc3c2)n1C)C(=O)O (stereo unspecified)	i
CCOc1ccc(NS(=O)(=O)N(C)C)cc1	i
N=C1c2ccccc2CN1NC(=O)c1ccc(F)cc1	i
COCCNC(=O)CCc1nc(-c2ccccc2)no1	i
COc1ccc(NC(=O)Cn2nnc(C(=O)NCc3cccc(OC)c3)c2N)cc1	i
COC(=O)C(C(=O)NCC1CCCO1)C1CCCC1 (stereo unspecified)	i
O=C(NCc1cccs1)C1CCCCC1	0.5
c1ccc(-c2cn3nc(-c4ccccc4)c(-c4ccccc4)nc3n2)cc1	0.2
CCCN(Cc1cc2ccc(C)cc2[nH]c1=O)S(=O)(=O)c1ccccc1	0.1
COc1ccc2c(c1)nc(SCC(=O)c1ccc(Br)s1)n2C	1.2
Cc1c2c(nc3nc4ccccc4n13)CC(C)(C)CC2=O	1.9
CCOC(=O)NC(=O)/C(C#N)=N\Nc1ccc(Cl)cc1	i
C#CC1CN(Cc2ccccc2)CC(C#C)N1C (stereo unspecified)	0.8
CC(O)CN=c1cc(-c2ccccc2)oc2ccc(Cl)cc12 (stereo unspecified)	i
Cc1cc(NC(=O)CSc2cn(CCNC(=O)c3ccc(Cl)cc3)c3ccccc23)no1	i
CCOc1ccc(C2CC(=O)c3c([nH]c(C(=O)OC)c3C)C2)cc1OC (stereo unspecified)	i
Cc1cc(SCC(=O)NC(=O)NCc2ccco2)nc2ccccc12	2.0
Oc1c(CN2CCCCC2)cc(Br)c2cccnc12	i
c1ccc2c(c1)[nH]c1c(N3CCN(C4CCCCC4)CC3)ncnc12	1.1
Cc1cc(C(F)F)n2ncc(C(=O)NC3CCCCCC3)c2n1	1.1
CCN(CC)CC(=O)Nc1ccc2c(c1)N(C(=O)CN(CC)CC)c1ccccc1CC2	0.9
Cc1occc1-c1nnc(SCC(=O)N2CCOCC2)o1	0.5
COc1ccc(/C=N/NC(=O)C(Cc2c[nH]c3ccccc23)NC(=O)OCC(C)C)cc1[N+](=O)[O-] (stereo unspecified)	i
CCOC(=O)C1=C(C)N=C(SC)N(C)C1c1ccccc1 (stereo unspecified)	0.1
COc1cccc(C2CC(c3ccc(C(C)C)cc3)n3nc(N)nc3N2)c1 (stereo unspecified)	3.2
C#CCN1C(=O)C(O)(CC(=O)c2cc(OC)ccc2OC)c2ccccc21 (stereo unspecified)	i

Quoted at random: 2 compounds from above.
SMILES	H5N1 CPE
C#CCN1C(=O)C(O)(CC(=O)c2cc(OC)ccc2OC)c2ccccc21 (stereo unspecified)	i
Cc1cc(NC(=O)CSc2cn(CCNC(=O)c3ccc(Cl)cc3)c3ccccc23)no1	i

The list continues:
SMILES	H5N1 CPE
Cc1ccc(-n2nnnc2-c2cnc3cc4c(cc3c2C)OCO4)cc1	i
O=C(CS(=O)CC(=O)N(CC(=O)NC1CCCC1)c1ccc2c(c1)OCCO2)Nc1ccc(F)cc1 (stereo unspecified)	i
N=c1c2c(n(Cc3ccccc3)c3c1CCC3)CCC2	i
Cc1cc(NC(=O)CS(=O)(=O)c2cn(Cc3ccccc3Cl)c3ccccc23)no1	2.1
CC(=O)NCCc1ccc(S(=O)(=O)NCc2ccc3c(c2)OCO3)cc1	1.1
CCOC(=O)c1c(CN(C)C)oc2cc(CN(C)C)c(O)c(CSc3ccccc3)c12	i
CCN(CC)CCCNC(=O)CC1Sc2ccccc2NC1=O (stereo unspecified)	0.7
COc1ccc(Br)cc1CNCCSc1nnnn1C	i
NC(=O)c1oc2ccccc2c1NC(=O)CCc1ccccc1	1.2
CCn1c(SCC(=O)N2CCc3ccccc32)nnc1-c1ccco1	i
O=C(Oc1ccc(N2C(=O)CCC2=O)cc1)c1ccco1	i
CCN(CC)c1ccc(/C=N/N2CCOCC2)cc1	i
CCN(c1ccc(NC(=O)COC(=O)c2ccc3ccccc3n2)cc1)C(C)C	1.9
CCOC(=O)c1cc(C(=O)Nc2cccc(C)c2)nn1C	i
CC(C)C1C(C#N)=C(N)SC(N)=C1C#N	i
CCCCNC(=O)c1nn(-c2ccccc2OC)c(=O)c2ccccc12	i
Cc1ccc(-c2nnc(SCC(=O)N3c4ccccc4NC(=O)C3(C)C)n2N)cc1	i
O=S(=O)(c1ccc(F)cc1)N1CCCC(CO)C1 (stereo unspecified)	0.1
CCn1nc(C(=O)OCC(=O)c2ccc3c(c2)OCCO3)c2ccccc2c1=O	i
Cc1cc2c(c(=O)n1Cc1ccccn1)C(C(C)C)C(C#N)=C(N)O2 (stereo unspecified)	0.6
CN(CCOc1ccc(-c2ccn(S(=O)(=O)c3c(Cl)cccc3Cl)n2)cc1)c1ccccn1	0.5
COc1ccc(S(=O)(=O)Cc2ccc(C(=O)N3CCN(c4ccc(Cl)cc4)CC3)o2)cc1	i
Cc1ccc(C)c(C(=O)CN2C(=O)CCC2=O)c1	i
CC(C)CNc1oc(-c2ccc(F)cc2)nc1C#N	0.1
CCOC(=O)CNC(=O)C1(c2ccccc2)CCCC1	i
COc1ccc(NC2=NCC(=O)N2c2ccccc2F)c(OC)c1	i
Cc1ccc(CN(C(=O)c2cc(=O)c3cc(Cl)c(C)cc3o2)C2CCS(=O)(=O)C2)cc1 (stereo unspecified)	0.2
CN(C)c1nc(Oc2ccc(N)cc2)nc(N(C)C)n1	i
Cn1c(SCC(=O)N2CCc3ccccc3C2)nnc1-c1cccs1	6.1
